Resorufin fluor = resorufin region autofluorescence | Compound fluorescence, resorufin region 547/598 nm, buffer; hits give high values | max dye-equivalent concentration, M | 0.04% of 59,000 active | AID 588; active = above 10 nM dye equivalent; inconclusive = 1 to 10 nM; inactive = 1 nM or less; a few of its hits are not listed in these tables; note: highest value over a series up to 38 µM
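Dye-equivalent concentration values derive from comparing each well's 547/598 nm fluorescence against resorufin standards included on every plate. Incubation was 15 min at room temperature in 100 mM Tris, pH 8.0.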
A647 fluor = compound fluoresces in the A647 spectral region. Compound fluorescence, A647 channel (570/671 nm), Tris buffer. 59,000 tested, under 10 active. max dye-equivalent concentration, M. AID 592; active means above 1 µM dye equivalent; inconclusive means 0.1 to 1 µM; inactive means 0.1 µM or less;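 note: values scaled relative to a standard on each plate; highest value over a series up to 38 µM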
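Fluorescence read (570 nm ex, 671 nm em) after 15 min RT incubation of compounds in 100 mM Tris buffer, pH 8.0; values expressed as dye-equivalent concentration against a six-point A647 standard series on each plate.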
TSHR agonist = TSH receptor (human) agonism. Potency, µM (highest dose often 57.1 µM), for the others: at the top dose activation, actives largely listed as activators. HEK293-CNG-TSHR cells (CNG channel as cAMP sensor), membrane potential dye, cAMP. P16473. AID 926. 0.48% of 73,000 active; active = well fitted activation curve of enough size with the parental cells flat; inconclusive = any curve in the parental cells; inactive = parental cells flat and receptor cells flat or falling; note: potency is the fitted concentration of half-maximal effect; % of control where 0% means no effect; weak receptor curves with flat parental cells got no call and are not listed
Target sequence (P16473 whole entry, looked up): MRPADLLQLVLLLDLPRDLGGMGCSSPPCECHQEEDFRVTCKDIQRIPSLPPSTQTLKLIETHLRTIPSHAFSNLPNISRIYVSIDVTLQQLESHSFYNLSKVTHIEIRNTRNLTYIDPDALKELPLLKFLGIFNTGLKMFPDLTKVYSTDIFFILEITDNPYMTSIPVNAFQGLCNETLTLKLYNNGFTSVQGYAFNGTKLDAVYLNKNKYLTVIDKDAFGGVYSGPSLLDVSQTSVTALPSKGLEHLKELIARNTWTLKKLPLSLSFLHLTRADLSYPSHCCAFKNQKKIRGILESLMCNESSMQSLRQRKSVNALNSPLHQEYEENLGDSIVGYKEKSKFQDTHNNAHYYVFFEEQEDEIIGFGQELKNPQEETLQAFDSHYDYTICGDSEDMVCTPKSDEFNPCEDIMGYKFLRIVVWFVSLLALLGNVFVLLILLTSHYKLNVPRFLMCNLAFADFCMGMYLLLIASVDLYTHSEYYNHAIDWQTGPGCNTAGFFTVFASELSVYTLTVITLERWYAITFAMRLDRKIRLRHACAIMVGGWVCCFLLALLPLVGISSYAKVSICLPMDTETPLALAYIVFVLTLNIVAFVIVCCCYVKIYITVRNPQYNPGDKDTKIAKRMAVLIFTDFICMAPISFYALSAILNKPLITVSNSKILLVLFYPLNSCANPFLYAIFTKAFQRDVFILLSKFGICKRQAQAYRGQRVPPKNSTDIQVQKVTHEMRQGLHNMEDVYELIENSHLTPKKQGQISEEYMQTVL
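cAMP rise detected as CNG-channel membrane depolarization by fluorescent dye (emission 590 nm), 30 min after compound, following 60 min dye loading containing 100 uM RO 20-1724 at room temperature. Cells: TSHR/CNG HEK 293, with parental CNG HEK 293 as control.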
A488 autofl = compound autofluorescence in A488 spectral region; compound autofluorescence, A488 spectral region, dye equivalency; hits give high values; max dye equivalency, M; 0.1% of 59,000 active; AID 591; active = above 10 nM dye equivalent; inconclusive = 1 to 10 nM; inactive = 1 nM or less; about half of its hits are not listed in these tables;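 note: highest value over a series up to 38 µM; compound alone in buffer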
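Spectroscopic profiling in the A488 region: compounds in pH 8.0 Tris (100 mM), 15 min RT, CCD imaging with 480 nm excitation and 540 nm emission; responses normalized against A488 dye standards.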
AID923 = qHTS Assay for Allosteric/Competitive Inhibitors of Caspase-1: Spectroscopic Profiling in AFC Spectral Region | compound fluorescence, AFC spectral region (405/520 nm); almost no hit is shown here | Potency, µM (series often up to 57.5 µM), inactives show at the highest dose fluorescence increase, usual class: activators | 1.1% of 75,000 active; active = well fitted activation curve with a large enough effect; inconclusive = small, poorly fitted or top-dose-only effect;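 note: potency is the fitted concentration of half-maximal effect; 0% is about no effect; scaled to a free AFC standard on each plate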
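Compound autofluorescence profiled at 405 nm ex/520 nm em during kinetic caspase 1 run (50 nM enzyme, 5 uM Ac-WEHD-AFC, HEPES pH 7.5, 10 mM DTT). Titration up to 57 uM; baseline from regression intercept, normalized to AFC standard curve.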
Numbers without * were called inactive; i = inactive; u = inconclusive; x = no result given; [ ] = another dose, or the depositor's remark. A portion of the library. The share of hits here may be higher or lower than overall.

mol	Resorufin fluor	A647 fluor	TSHR agonist	A488 autofl	AID923
Cc1ccnc(N(C(=O)c2cccs2)C(=O)c2cccs2)c1	i	1e-09	5.3%	i	0.2%
Cc1cnc(CNc2cc(-c3ccccc3CN(C)C)ncn2)cn1	i	4.03e-08	u	i	1.3%
O=C(c1ccco1)N1CCN(CC2CC3C=CC2C3)CC1 (stereo not given)	i	1e-09	4.2%	i	0.5%
Cc1ccccc1-c1nc(CS(=O)(=O)CC(=O)N(C)C2CCCCC2)c(C)o1	x	x	u	x	-1.8%
CCOC(=O)C1CCCN(c2c(NCc3ccco3)c(=O)c2=O)C1 (stereo not given)	x	x	-6.4%	x	1.8%
O=C(Nc1cnc2ccccn2c1=O)c1ccc(F)cc1	i	1.52e-08	8.4%	i	0.0%
CC(C)c1cc(C(=O)NCc2ccco2)no1	x	x	1.8%	x	-3.2%
CC(=O)N1CCC(=O)N(C(C)C)c2ccccc21	i	1e-09	-3.9%	i	-0.3%
Cc1ccc(S(=O)(=O)Cn2nnnc2C(c2ccccn2)N2CCN(c3ccccc3)CC2)cc1 (stereo not given)	i	5.8e-09	0.2%	i	-1.3%
CCOC(=O)C(CC)Sc1ncnc2nc[nH]c12 (stereo not given)	i	1e-09	u	i	-0.3%
O=C(O)CCSCc1ccccc1F	i	1.11e-08	-1.4%[11.4 µM]	i	-1.0%
CCCOc1ccc(C(=O)N2CCN(c3ccc(NC(=O)CC)cc3Cl)CC2)cc1	i	5.7e-09	-4.4%	i	1.2%
CN(CC(=O)NC1CCCCC1)S(=O)(=O)c1ccc(Cl)cc1	i	1e-09	1.4%	i	0.0%
O=C(Nc1ccc(F)cc1)c1oc2ccccc2c1NC(=O)C1CCCC1	i	1e-09	u	i	0.5%
CCCC(=O)Nc1ccc2oc(-c3ccc(OC)c(Br)c3)nc2c1	i	5.9e-09	15.0%	i	-0.3%
Cc1ccc(N2C(=O)c3oc4ccccc4c(=O)c3C2c2cccnc2)nc1 (stereo not given)	x	x	u	x	1.5%
CN(C)S(=O)(=O)c1cccc(C(=O)OCC(=O)N2c3ccccc3NC(=O)C2(C)C)c1	i	1e-09	-1.5%	i	0.1%
COc1cc(C(=O)Nc2ccc(-n3cnnn3)c(C)c2)cc(OC)c1OC	i	3.7e-09	3.9%	i	-0.1%
COC(=O)C1=C(C)N(C)C(C)=C(C(=O)OC)C1c1ccc(F)c(Br)c1	x	x	u	x	-2.1%
O=C(CCSCCc1ccccn1)Nc1ccccn1	i	3.77e-08	0.6%	i	-0.5%
Cc1ccnc2ccc(-c3nc4ccccc4o3)cc12	i	1e-09	u	i	-1.9%
CCOC(=O)c1ccc(NC(=O)Nc2ccc3c4c(cccc24)C(=O)N3CC)cc1	i	1.73e-08	u	i	-0.3%
CC(=O)N(CCP(=O)(c1ccccc1)c1ccccc1)Cc1ccco1	x	x	u	x	-1.3%
CC(=O)Nc1cc(C(=O)N2CCOCC2)ccc1S(=O)(=O)c1ccc(C)cc1	i	1.07e-08	6.0%	i	-1.2%
Oc1ccccc1Oc1ncc(Br)c(N2CCOCC2)n1	i	3.04e-08	4.9%	i	0.6%
CCc1nc(NCC2CCCN2CC)c2nnn(Cc3ccccc3F)c2n1 (stereo not given)	i	1.1e-09	13.3%	i	6.5%
O=C(O)COc1ccccc1C1C2C(=O)N(c3ccc(F)cc3)C(=O)C2ON1c1ccccc1 (stereo not given)	i	2.76e-08	-5.2%	i	2.3%
CCc1nnc(NC(=O)CSc2nnc(-c3ccccc3OC)n2-c2ccccc2)s1	i	5e-09	u	i	-0.7%
O=C(CSCCO)Nc1cccc2ccccc12	i	3.8e-09	u	i	-2.1%
COC(=O)c1oc2ccc(Br)cc2c1NC(=O)CN1CCN(C)CC1	i	1.36e-08	-17.0%	i	-0.3%
O=C1c2ccccc2C(=O)N1CCSc1nncs1	i	4.06e-08	1.7%	i	1.1%
COc1ccc(CCC(=O)NCCc2cn3c(C)csc3n2)cc1	x	x	u	x	-2.2%
Cc1nc2c(-c3ccccc3)c(C)nn2c(C)c1CC(=O)O	i	2.55e-08	-2.7%	i	-0.3%
CCN1CCN(c2ncnc3c2oc2nc(C)c4c(c23)CC(C)(C)OC4)CC1	i	2.37e-08	6.5%	i	1.2%
COc1ccc(CCNC(=O)C2CCN(S(C)(=O)=O)CC2)cc1OC	i	6.9e-09	0.0%	i	0.3%
COc1ccc(COC(=O)N/N=C2/C[C@@H](O)[C@@H](O)[C@@H]3[C@@H]4C(=O)N(C[C@@H]5CCCO5)C(=O)[C@H]4CC[C@@H]23)cc1	x	x	6.0%[11.4 µM]	x	1.7%[11.5 µM]
O=C(O)CC1CCC(=C(Cl)Cl)C1 (stereo not given)	i	1e-08	0.0%	i	1.6%
CC1(C)CC(=O)N(CC(=O)NCc2ccccc2)c2ccccc2S1(=O)=O	x	x	2.8%	x	2.2%
CCOc1cc(-c2ccccc2)nc(N)n1	i	1e-09	13.3%	i	-0.9%
Cc1cc(=O)n2nc(N3CCC(C(=O)N4CCN(Cc5ccccc5)CC4)CC3)sc2n1	i	2.51e-08	x	i	-0.5%
Cn1c(SCC(=O)N2CCOCC2)nnc1-c1ccc(NC(=O)c2ccccc2F)cc1	x	x	-2.6%	x	4.2%
Cc1cc(S(=O)(=O)N(C)CCc2ccccc2)ccc1-n1cnnn1	i	2.3e-09	-4.2%	i	-0.3%
CCOC(=O)Nc1ccccc1N1C(=O)c2ccccc2C1=O	i	4.4e-08	2.4%	i	0.0%
CCc1ccc(C(=O)NCC2COc3ccccc3O2)o1 (stereo not given)	x	x	13.1%[11.4 µM]	x	0.8%
N#Cc1cccc(-c2ccc3ncnc(NCc4cccs4)c3c2)c1	i	2.72e-08	u	i	1.2%
COC(=O)c1ccc(OCCN2C3=NCCN3c3ccccc32)cc1	i	2.5e-09	-7.3%	i	0.8%
COCn1c(-c2cccc(Br)c2)nc2ccccc21	x	x	u	x	-1.3%
Cc1cc(CC(C)C)n(-c2nc3ccccc3c(=O)n2OCC(N)=O)n1	i	3.3e-09	u	i	2.5%
Cc1nc2ccc(N)cc2c(=O)n1Cc1ccc(Cl)cc1	i	3.6e-08	-4.9%	i	0.7%
COc1ccc(OCC(O)CNc2ccc(Br)cc2)cc1 (stereo not given)	i	1.57e-08	6.6%	i	-1.2%
COc1cccc(NS(=O)(=O)c2ccc3[nH]cc(C(=O)NCCCOC(C)C)c(=O)c3c2)c1	i	1.63e-08	-8.0%	i	0.2%
COc1ccc(COC(=O)c2ccc(N3CCCC3=O)cc2)cc1F	i	3.69e-08	u	i	1.6%
O=C(N1CCN(c2ccccc2)CC1)C(F)(F)C(F)F	x	x	23.4%	x	-2.1%
C#CCN1C(=O)C(O)(CC(=O)c2ccc3c(c2)OCCO3)c2ccccc21 (stereo not given)	x	x	-5.8%	x	0.2%
CC(C)n1c(SCc2ccccc2F)nc2c1c(=O)n(C)c(=O)n2C	x	x	u	x	0.7%
COC(=O)c1sc(N)c(C(=O)OC)c1CSc1nc2sc3c(c2c(=O)n1C)CCC3	i	2.74e-08	20.6%	i	-1.6%

(continued)
mol	Resorufin fluor	A647 fluor	TSHR agonist	A488 autofl	AID923
COc1ccc(OC)c2[nH]c(=O)c(CCNC(=O)c3ccc(Br)o3)cc12	i	5.9e-09	10.0%	i	-0.5%
CCOC(=O)CNC(=O)CSc1nc2cccnc2n1C	i	3.02e-08	6.9%	i	-0.7%
CCc1ccc(-c2nn[nH]n2)cc1	i	5.5e-09	-4.7%	i	-4.5%
Cc1nn(Cc2ccccc2)c(Cl)c1C(=O)NCc1ccc(C)n1C	i	2.09e-08	-2.2%	i	3.4%
c1ccc(-c2nnc(-c3ccco3)n2-c2ccccc2)cc1	i	5.1e-09	u	i	0.8%
COc1ccc(CCN(C(=O)c2ccc(F)cc2)C2=CC3CCC(C2)N3C)cc1OC (stereo not given)	i	3.18e-08	u	i	-0.5%
O=C(CNC(=O)c1ccc(Cl)cc1)NCCCn1ccnc1	i	1e-09	1.1%	i	0.5%
COc1cc(C)nc(Nc2nc(C)c(C(C)=O)s2)n1	i	2.06e-08	x	i	x
Cc1nnc(Nc2ccc3c(c2)ncn3C)c2ccccc12	i	1e-09	-2.0%	i	-0.9%
O=C(CSc1nnc(CNC(=O)c2ccccc2F)o1)c1ccc(Cl)cc1	i	1e-09	x	i	-1.1%
Cc1noc(C)c1C(=O)N1CCC2(CC1)CCN(c1ccncc1)CC2	i	2.85e-08	u	i	-0.5%
Cn1c(NC(=O)C2CCCO2)cc(=O)n(C)c1=O (stereo not given)	x	x	-6.7%	x	-0.9%
CCCC[C@@H]1CN2[C@H](c3ccc(Br)cc3)[C@@H](C)CC[C@H]2C(=O)O1	x	x	15.0%[11.4 µM]	x	-3.6%[11.5 µM]
CS(=O)(=O)c1nncn1-c1ccccc1	i	1e-09	-2.8%	i	-1.0%
O=C(NCCN1CCOCC1)c1ccc2c(c1)ncn2C1CCCC1	x	x	1.0%	x	-2.9%
Cc1ccc(C(=O)N2CCOCC2)cc1Cl	i	3.06e-08	10.4%	i	-0.8%
CCOC(=O)N1CCN(C(=O)CSCC(=O)N=c2sc3cc(OC)ccc3n2C)CC1	i	2.51e-08	u	i	0.7%
CC(C)Cn1c(SCC(=O)NC2CCCc3ccccc32)nc(O)cc1=O (stereo not given)	i	2.1e-09	13.8%	i	1.5%
OCCNc1nc(-c2cccnc2)nc2ccccc12	x	x	-0.5%	x	-0.1%
Cc1ccccc1CN1C2=NCCN2c2ccccc21	i	7.3e-09	16.9%	i	-0.9%
Cc1cc(F)ccc1S(=O)(=O)Nc1ccccc1C(=O)Nc1ncn[nH]1	i	1.1e-09	u	i	0.2%
O=C(CSc1nnc(Cc2cccs2)n1Cc1ccco1)Nc1cccc(Cl)c1	i	3.72e-08	u	i	1.1%
CCc1ccc(NS(=O)(=O)c2ccc3[nH]cc(C(=O)N4CCCCC4)c(=O)c3c2)cc1	i	1.86e-08	-0.6%	i	-1.0%
CCc1nnc(NC(=O)C2CC(=O)N(Cc3ccco3)C2)s1 (stereo not given)	i	2.64e-08	1.9%	i	-0.5%
O=C(CCCSc1nc2sc3c(c2c(=O)[nH]1)CCC3)NCCCO	x	x	5.1%	x	0.4%
Cc1ccoc1C(=O)NCCCNC(=O)c1occc1C	i	5.9e-09	1.3%	i	0.9%
O=C1CC(N2CCC(O)(c3ccc(Cl)cc3)CC2)C(=O)N1 (stereo not given)	i	1.19e-08	-3.9%	i	-1.5%
c1ccc(Cc2nnc3sc(-c4cccs4)nn23)cc1	i	5.5e-09	-3.6%	i	1.5%
CCOc1ccccc1C1C2C(=O)N(c3ccccc3)C(=O)C2ON1c1ccccc1 (stereo not given)	i	1e-09	12.8%	i	0.2%

Given with each value named: 3 of the compounds above.
mol: O=C1CC(N2CCC(O)(c3ccc(Cl)cc3)CC2)C(=O)N1 (stereo not given)
  Resorufin fluor: i	A647 fluor: 1.19e-08	TSHR agonist: -3.9%	A488 autofl: i	AID923: -1.5%
mol: c1ccc(Cc2nnc3sc(-c4cccs4)nn23)cc1
  Resorufin fluor: i	A647 fluor: 5.5e-09	TSHR agonist: -3.6%	A488 autofl: i	AID923: 1.5%
mol: CCOc1ccccc1C1C2C(=O)N(c3ccccc3)C(=O)C2ON1c1ccccc1 (stereo not given)
  Resorufin fluor: i	A647 fluor: 1e-09	TSHR agonist: 12.8%	A488 autofl: i	AID923: 0.2%

Compound activity: PubChem, National Center for Advancing Translational Sciences (NCATS)
